Source: PubChem BioAssay
Vaccinia inh – blocks a specific stage of Vaccinia orthopoxvirus infection, primary screen, cell-based, single point; Vaccinia-infected cells, mCherry/Venus stage reporter fluorescence; active compounds read low; some inactives read as strong as hits; activity change (mCherry), % (no concentration beside the values); 89,000 compounds, 0.01% hits; AID 1053133, 2014;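 active = mCherry past -33% and 40 or more points under the early reporter, replicates agreeing; inconclusive = past -33% without that gap or agreement; tested in A549 cells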;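 note: scaled between vehicle wells and reference inhibitor wells; 23 nL library stock went into each well; one replicate is shown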
Vaccinia inh Venus – recorded beside Vaccinia inh, whose call it bears; activity change (Venus), %; measured here: Venus reporter, other viral stage;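 negative = less Venus signal; first of two replicates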
An asterisk follows results filed as active; ? = inconclusive; · = not tested or not shown; & = joins results of further samples.

molecule	Vaccinia inh	Vaccinia inh Venus
C[C@@H]1CN([C@@H](C)CO)S(=O)(=O)c2ccc(-c3cccc(C#N)c3)cc2O[C@@H]1CN(C)C	26.0	4.9
COCC#Cc1cnc2c(c1)C(=O)N([C@H](C)CO)C[C@H](C)[C@@H](CN(C)C(=O)c1cnccn1)O2	12.6	10.4
C[C@@H]1CN([C@H](C)CO)C(=O)c2cccc(NC(=O)c3nc4ccccc4s3)c2O[C@H]1CN(C)C	14.4	10.1
C[C@@H]1CN([C@@H](C)CO)C(=O)c2cccc(NC(=O)CCCCCC(=O)Nc3ccccc3N)c2O[C@@H]1CN(C)C(=O)Nc1ccc2c(c1)OCO2	3.3	5.9
C[C@H]1CN([C@@H](C)CO)C(=O)c2cccc(NC(=O)c3nc4ccccc4s3)c2O[C@@H]1CN(C)CC1CCCCC1	?	·
COc1ccc(NC(=O)N(C)C[C@@H]2OCCCC[C@@H](C)Oc3ccc(NC(=O)NC4CCCCC4)cc3C(=O)N([C@H](C)CO)C[C@H]2C)cc1	-31.4	-24.1
CCCNC(=O)N1[C@H](CO)[C@@H](c2ccccc2)[C@H]1CNC(=O)c1ccccc1	11.5	11.6
O=C(C[C@H]1C=C[C@@H](NC(=O)C2CCOCC2)[C@H](CO)O1)NCC1CCCCC1	9.7	5.5
O=C(c1ccccc1F)N1CC[C@@H]2[C@@H](CO)Nc3ccc(-c4ccc(F)cc4)cc3[C@@H]21	?	·
C[C@H]1CN([C@@H](C)CO)S(=O)(=O)c2ccc(-c3ccc(C#N)cc3)cc2O[C@H]1CN(C)Cc1ccccn1	-20.1	-9.8
O=C(C[C@@H]1C=C[C@H](NC(=O)c2ccccc2)[C@H](CO)O1)NCc1ccncn1	-9.4	2.5
CO[C@@H]1CN(C)C(=O)c2ccc(NC(=O)C3CCC3)cc2OC[C@@H](C)N(C(=O)NC(C)C)C[C@H]1C	20.9	15.2
C[C@H]1CN([C@@H](C)CO)C(=O)c2cc(-c3cccc(C#N)c3)cnc2O[C@H]1CN(C)Cc1cccnc1	2.1	-6.6
C[C@H]1CCCCO[C@@H](CN(C)C(=O)CCC(F)(F)F)[C@@H](C)CN([C@@H](C)CO)C(=O)c2cc(NS(=O)(=O)c3cn(C)cn3)ccc2O1	12.6	9.4
C[C@@H]1CN([C@@H](C)CO)C(=O)c2cc(NS(=O)(=O)c3ccc(Cl)cc3)ccc2O[C@@H](C)CCCCO[C@@H]1CN(C)C(=O)Nc1ccc(C(F)(F)F)cc1	-2.9	0.1
CC(=O)N(C)C[C@@H]1[C@@H](c2ccccc2)[C@H](CO)N1C(=O)C1CCC1	11.1	7.7
C[C@@H]1CN([C@H](C)CO)C(=O)c2cc(NC(=O)CCC(F)(F)F)ccc2O[C@H]1CN(C)C(=O)Nc1cccc2ccccc12	22.6	17.1
COc1ccccc1-c1ccc2c(c1)[C@H]1[C@H](CCN1S(=O)(=O)c1cccc(C)c1)[C@@H](CO)N2	7.1	4.9
Cc1noc(C)c1NC(=O)Nc1ccc2c(c1)C(=O)N([C@@H](C)CO)C[C@@H](C)[C@H](CN(C)C(=O)Nc1ccc(F)cc1)OCCCC[C@H](C)O2	20.5	-0.1
O=C(C[C@H]1CC[C@H]2[C@@H](COC[C@H](O)CN2C(=O)Nc2cccc(F)c2)O1)NCCCN1CCOCC1	1.5	0.1

Exported field by field: part of the list above.
CC(=O)N(C)C[C@@H]1[C@@H](c2ccccc2)[C@H](CO)N1C(=O)C1CCC1
  Vaccinia inh: 11.1
  Vaccinia inh Venus: 7.7
C[C@@H]1CN([C@H](C)CO)C(=O)c2cc(NC(=O)CCC(F)(F)F)ccc2O[C@H]1CN(C)C(=O)Nc1cccc2ccccc12
  Vaccinia inh: 22.6
  Vaccinia inh Venus: 17.1

(list continues)
molecule	Vaccinia inh	Vaccinia inh Venus
CCC(=O)N(C)C[C@H]1Oc2cc(C#Cc3ccccc3)ccc2S(=O)(=O)N([C@@H](C)CO)C[C@H]1C	?	·
C[C@@H]1CCCCO[C@@H](CN(C)C(=O)c2ccncc2)[C@@H](C)CN([C@H](C)CO)C(=O)c2cc(NS(=O)(=O)c3ccc(F)cc3)ccc2O1	34.4	22.6
Cc1ccc(S(=O)(=O)N(C)C[C@H]2Oc3ccc(NC(=O)Cc4ccccc4)cc3CC(=O)N([C@@H](C)CO)C[C@H]2C)cc1	-5.9	-0.7
CC(C)NC(=O)N(C)C[C@H]1Oc2cc(C#CC(C)(C)O)ccc2S(=O)(=O)N([C@H](C)CO)C[C@H]1C	19.7	8.8
C[C@@H]1CN([C@@H](C)CO)C(=O)Cc2cc(NS(=O)(=O)c3cn(C)cn3)ccc2O[C@H]1CN(C)S(=O)(=O)c1ccccc1	24.5	11.5
COCC#Cc1ccc2c(c1)O[C@H](CN(C)S(=O)(=O)c1cccc(F)c1)[C@H](C)CN([C@H](C)CO)S2(=O)=O	-30.3	-26.3
COc1cccc(NC(=O)N2CC3(C2)[C@H](c2ccccc2)[C@H](CO)N3C(=O)C2CC2)c1	8.1	14.3
Cc1noc(C)c1NC(=O)N(C)C[C@H]1Oc2ccc(NC(=O)C3CC3)cc2CC(=O)N([C@@H](C)CO)C[C@H]1C	-2.4	0.3
COCCNC(=O)C[C@H]1CC[C@H]2[C@H](COc3ccc(NC(=O)Nc4cccc(F)c4)cc3C(=O)N2C)O1	14.0	6.3
CN1C(=O)c2cc(NC(=O)c3cnccn3)ccc2OC[C@H]2O[C@H](CC(=O)O)CC[C@H]21	1.5	0.5
C[C@H]1CN([C@@H](C)CO)C(=O)Cc2cc(NC(=O)CCN3CCOCC3)ccc2O[C@H]1CN(C)S(=O)(=O)c1ccc(F)cc1	3.0	4.9
O=C(Nc1ccc(F)cc1)N1CC(=O)N2[C@H](CO)[C@H](c3ccc(C#Cc4cccnc4)cc3)[C@@H]2C1	-24.9	-24.1
C[C@@H]1CN([C@@H](C)CO)C(=O)c2cc(NC(=O)C3CCCCC3)ccc2O[C@H]1CN(C)Cc1ccc(C(F)(F)F)cc1	-17.9	-14.1
C[C@@H]1CN([C@H](C)CO)C(=O)c2cccc(NC(=O)c3ccc(-c4nccs4)cc3)c2O[C@H]1CN(C)Cc1ccc(C(=O)Nc2ccccc2N)cc1	-8.8	2.4
C[C@@H]1CN([C@@H](C)CO)C(=O)c2cc(-c3ccncc3)cnc2O[C@H]1CN(C)C(=O)c1cccc(F)c1	13.6&24.6	-3.6&13.2
CCCN(C)C[C@H]1OCCCC[C@H](C)Oc2ccc(NS(=O)(=O)c3ccc(OC)cc3)cc2C(=O)N([C@@H](C)CO)C[C@H]1C	-19.0	-14.6
C[C@@H]1CN([C@H](C)CO)C(=O)c2cccc(NC(=O)c3cnccn3)c2O[C@@H]1CN(C)Cc1ccncc1	8.6	0.7
CCCC#Cc1ccc([C@@H]2[C@@H](CO)N3CCCCN(S(=O)(=O)CC)C[C@@H]23)cc1	19.2	-2.8
O=C(C1=C[C@H](c2ccc3c(c2)OCO3)C[C@H](OCc2ccc(CO)cc2)O1)N1CCCCC1	20.2	21.6
COc1ccc(CN(C)C[C@H]2Oc3ccc(NC(=O)Cc4cn(C)c5ccccc45)cc3C(=O)N([C@H](C)CO)C[C@@H]2C)cc1	-18.1	-10.3
CNC[C@@H]1Oc2c(NC(=O)Nc3ccc(F)cc3)cccc2C(=O)N([C@@H](C)CO)C[C@H]1C	11.8	0.6
CCC(=O)Nc1ccc2c(c1)C(=O)N(C)[C@H]1CC[C@H](CC(=O)NCc3ccccc3Cl)O[C@@H]1CO2	12.7	5.0
CO[C@H]1CN(C)C(=O)c2ccc(NS(C)(=O)=O)cc2OC[C@H](C)N(CCC(F)(F)F)C[C@@H]1C	0.7	-3.7
C[C@H]1CN([C@@H](C)CO)C(=O)CCCn2nncc2CO[C@@H]1CN(C)S(=O)(=O)c1ccc2c(c1)OCCCO2	16.1	15.4
CCC(=O)Nc1ccc2c(c1)C(=O)N(C)[C@H]1CC[C@H](CC(=O)N3CCc4ccccc4C3)O[C@H]1CO2	4.9	3.5
CCNC(=O)C[C@@H]1CC[C@@H]2[C@@H](COc3ccc(NC(=O)c4cccs4)cc3C(=O)N2C)O1	-1.1	5.3
C[C@H](CO)N1C[C@H](C)[C@H](CN(C)S(=O)(=O)c2cccc(F)c2)Oc2ncc(-c3cccc(F)c3)cc2C1=O	-3.2&15.4	-15.3&12.1
COc1ccc2c3c(n(C)c2c1)[C@H](CO)N(C(=O)CN(C)C)CC31CCN(Cc2nccs2)CC1	?	·
CN1C(=O)c2cc(NC(=O)c3cccs3)ccc2OC[C@@H]2O[C@H](CC(=O)O)CC[C@@H]21	3.7	12.3
C[C@H]1CN([C@@H](C)CO)C(=O)c2cc(C#CCN(C)C)cnc2O[C@H]1CN(C)Cc1ccccn1	14.5	11.0
C[C@@H]1CN([C@H](C)CO)S(=O)(=O)c2ccc(C#C[C@@H](C)O)cc2O[C@@H]1CN(C)C(=O)C1CCCCC1	8.3	6.7
C[C@H](CO)N1C[C@H](C)[C@H](CN(C)C(=O)Nc2ccc(C(F)(F)F)cc2)Oc2ccc(NC(=O)CCCCCC(=O)Nc3ccccc3N)cc2C1=O	-6.1	2.5
O=C(NCCCN1CCOCC1)[C@@H]1[C@@H](CO)[C@@H]2Cn3c(ccc(C4=CCCC4)c3=O)[C@H]1N2	13.5	13.5
C[C@H]1CN([C@@H](C)CO)C(=O)c2cc(NC(=O)CCC(F)(F)F)ccc2O[C@@H]1CN(C)S(=O)(=O)c1ccccc1	6.5	-0.9
COc1ccc(NC(=O)N(C)C[C@H]2Oc3ccc(NC(=O)NC(C)C)cc3C(=O)N([C@H](C)CO)C[C@@H]2C)cc1	24.0	9.5
C[C@H]1CN([C@@H](C)CO)C(=O)c2c(c3ccccc3n2C)-c2ccccc2CO[C@H]1CN(C)S(=O)(=O)c1cccs1	-25.5	-21.8
CCCNC(=O)C[C@@H]1CC[C@@H]2[C@H](COC[C@@H](O)CN2Cc2ccc(Cl)c(Cl)c2)O1	?	·
CCNC(=O)C[C@H]1CC[C@H]2[C@@H](COc3ccc(NC(C)=O)cc3C(=O)N2C)O1	10.7	6.2
C[C@@H]1CN([C@H](C)CO)C(=O)c2cc(-c3cccc(C(=O)N(C)C)c3)cnc2O[C@@H]1CN(C)S(=O)(=O)c1ccc(F)cc1	8.7	4.6
O=C(C[C@@H]1C=C[C@H](NC(=O)Nc2ccc3c(c2)OCO3)[C@H](CO)O1)NCc1ccccc1	-0.7	-0.1

Compound profiles, from the list above. Order of screens: Vaccinia inh | Vaccinia inh Venus
Entry for `Cc1noc(C)c1NC(=O)Nc1ccc2c(c1)C(=O)N([C@@H](C)CO)C[C@@H](C)[C@H](CN(C)C(=O)Nc1ccc(F)cc1)OCCCC[C@H](C)O2` → 20.5 | -0.1
Entry for `O=C(C1=C[C@H](c2ccc3c(c2)OCO3)C[C@H](OCc2ccc(CO)cc2)O1)N1CCCCC1` → 20.2 | 21.6

Other records follow:
molecule	Vaccinia inh	Vaccinia inh Venus
CCN(C[C@H]1N[C@H](CO)[C@H]1c1ccc(-c2cccc(F)c2)cc1)C(=O)COC	-12.9	4.6
C[C@H]1CN([C@@H](C)CO)C(=O)c2cc(C3=CCCC3)cnc2O[C@@H]1CN(C)C	3.5	7.1
C[C@@H]1CN([C@@H](C)CO)C(=O)c2cc(NC(=O)Nc3ccc(C(F)(F)F)cc3)ccc2O[C@@H]1CN(C)Cc1ccc(C(=O)O)cc1	-4.1	-3.1
C[C@H]1CN([C@@H](C)CO)C(=O)c2cc(NC(=O)C3CC3)ccc2O[C@@H]1CN(C)Cc1ccc(Oc2ccccc2)cc1	-22.1	-19.2
C[C@@H]1CN([C@@H](C)CO)C(=O)c2cc(NC(=O)Nc3ccccc3)ccc2O[C@H]1CN(C)Cc1ccc(Oc2ccccc2)cc1	?	·
COc1ccc(S(=O)(=O)Nc2ccc3c(c2)CC(=O)N([C@H](C)CO)C[C@H](C)[C@@H](CN(C)CC2CCCCC2)O3)cc1	?	·
Cc1noc(C)c1S(=O)(=O)N(C)C[C@@H]1OCCCC[C@H](C)Oc2ccc(N(C)C)cc2C(=O)N([C@@H](C)CO)C[C@H]1C	-13.5	4.2
O=C(NCC1CC1)[C@H]1N[C@H]2c3ccc(-c4ccccc4F)c(=O)n3C[C@H]2[C@@H]1CO	10.8	14.1
CO[C@H]1CN(C)C(=O)c2cc(NC(=O)CC(F)(F)F)ccc2OC[C@H](C)N(C(=O)C2CCOCC2)C[C@H]1C	15.9	18.2
CCC(=O)Nc1ccc2c(c1)OC[C@H](C)N(C(=O)CN(C)C)C[C@@H](C)[C@@H](OC)CN(C)C2=O	8.1	5.0
C[C@H]1CN([C@@H](C)CO)C(=O)c2ccccc2-c2ccccc2CO[C@@H]1CN(C)C(=O)c1cc(Cl)cc(Cl)c1	-25.9	-16.5
C[C@@H]1CN([C@@H](C)CO)C(=O)c2cc(C#CC3CCCCC3)cnc2O[C@H]1CN(C)S(=O)(=O)c1cccc(F)c1	-35.0	-29.3
O=C(Nc1ccc2c(c1)OCO2)N[C@H]1CC[C@H](CCNC(=O)C2CCCC2)O[C@H]1CO	4.6	10.2
C[C@@H]1CN([C@@H](C)CO)C(=O)c2cc(NC(=O)NC3CCCCC3)ccc2O[C@@H](C)CCCCO[C@@H]1CN(C)C	9.6	6.5
C[C@@H]1CN([C@@H](C)CO)C(=O)c2cc(C#CC3(O)CCCC3)cnc2O[C@H]1CN(C)Cc1cncnc1	19.6	11.7
CO[C@H]1CN(C)C(=O)c2cc(NC(=O)C3CC3)ccc2OC[C@H](C)N(C(=O)CN(C)C)C[C@H]1C	-9.3	-11.6
C[C@@H]1CCCCO[C@@H](CN(C)C(=O)Nc2ccccc2)[C@H](C)CN([C@H](C)CO)C(=O)c2cc(NC(=O)c3ccncc3)ccc2O1	7.1	3.6
CO[C@H]1CN(C)C(=O)c2ccc(NC(=O)c3ccc(Oc4ccccc4)cc3)cc2OC[C@H](C)NC[C@@H]1C	?	·

This is a subset; rates above refer to the full screens.
